High-throughput results deposited in PubChem by PCMD.
Calb biofilm kill = mixtures killing C. albicans biofilm. C. albicans biofilm persisters + clotrimazole, fluorescence viability; primary screen in compound mixtures of four per well. inhibition, % at 7.6 µM. hit rate 0.02% among 120,000;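 active = inhibition above 30.3% in the primary screen of four-compound pools, then above 30% when the compound was retested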;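 also: compounds exposed to preformed 24 h biofilms for 48 h; the number belongs to the whole pool; some results filed as inactive read as strong as hits; inactives centre near 12; 0% = biofilm with clotrimazole alone and 100% = kill control; retested singly at about 60 µM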
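Test system: C. albicans biofilms. Buffer or medium: RPMI/MOPS medium, pH 7.0. Timing: 48 h compound exposure at 37 °C. Technique: Alamar Blue fluorescence. Evaluation: percent inhibition of biofilm viability.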
* = called active by the depositor; & = joins results of further samples. This is a subset, so the mix of outcomes need not match the whole.

For C=CCOc1ccccc1CN1CCCC(CCC(=O)N(C)CCc2ccccn2)C1 (stereo unspecified) the results were Calb biofilm kill 9.
For COc1ccc(C(C)=O)cc1COC(=O)CCCN1C(=O)c2ccccc2C1=O the results were Calb biofilm kill 17.
Screening c1ccc2cc3[nH]c(CN4CCOCC4)nc3cc2c1 returned Calb biofilm kill 11.
CCOc1ccc(NC(=O)C(Cc2ccccc2)N2C(=O)c3cccc4cccc(c34)C2=O)cc1 (stereo unspecified) was read as Calb biofilm kill -2.
Screening Cn1cc(C(=O)Nc2ccc3c(c2)CCC3)cn1 returned Calb biofilm kill 7.
Screening CCOC(=O)CC(=O)c1[nH]c(C)c(C(=O)OCC)c1C returned Calb biofilm kill 10.
Screening CCNC(=O)c1cc(S(=O)(=O)N(C)C)c(Cl)cc1Cl returned Calb biofilm kill 2.
COc1ccc([N+](=O)[O-])cc1NC(=O)C(C)Sc1nc(-c2ccccc2)cs1 (stereo unspecified) was read as Calb biofilm kill 11.
`CC1=Nc2ccc(C)cc2/C1=C/c1c(N)n2oc(C)cc2nc1=O` gave Calb biofilm kill 49&15.
Screening O=c1c2ccccc2ncn1-c1ccc(Cl)c(Cl)c1 returned Calb biofilm kill 5.
O=C(COC(=O)c1ccc(O)cc1)Nc1ncc(Cl)cc1Cl was read as Calb biofilm kill 24.
COC(=O)c1c(C)oc(C)c1S(=O)(=O)N(C)C1CCCCC1 was read as Calb biofilm kill 12.
For Cn1c(CCc2nc3ccccc3[nH]2)nnc1SCC#N the results were Calb biofilm kill 16.
COc1ccccc1NC(=O)Nc1cnccn1 was read as Calb biofilm kill 18.
For O=C1SCC(c2ccccc2)=NN1Cc1ccccc1 the results were Calb biofilm kill 7.
`COc1ccc(S(=O)(=O)N2CCOCC2)cc1NC(=O)CSc1nnc2c(n1)[nH]c1ccccc12` gave Calb biofilm kill 13.
`CCN(C(=O)c1ccnn1C)c1ccccc1` gave Calb biofilm kill 1.
`COc1ccccc1N1CCN(CC(=O)Nc2ccc(Cl)c(C(F)(F)F)c2)CC1` gave Calb biofilm kill 2.
Screening CCn1c(SCC(=O)Nc2ccc(OC)c(OC)c2)nnc1-c1ccco1 returned Calb biofilm kill 6.
COc1cc(/C=C2\SC(=S)N(NS(=O)(=O)c3ccc(C)cc3)C2=O)ccc1O was read as Calb biofilm kill 15.
CNc1c([N+](=O)[O-])cnn1-c1ccccn1 was read as Calb biofilm kill 11.
`CC(=O)c1cc(-c2ccc(F)cc2)n(CCC(=O)Nc2cccnc2)c1C` gave Calb biofilm kill 17.
Screening S=C(Nc1ccccc1)Nc1nccs1 returned Calb biofilm kill 5.
`CC1CC(C)CN(C(=O)c2ccc(CNc3c(N4CCCC4)c(=O)c3=O)cc2)C1` (stereo unspecified) gave Calb biofilm kill 25.
CN1CCc2c(sc(/N=C/c3c[nH]c4ccccc34)c2C(N)=O)C1 was read as Calb biofilm kill 2.
Screening CC(=O)Nc1c(C)ccc(S(N)(=O)=O)c1C returned Calb biofilm kill 55.
For OCCC1CN(Cc2nc3ccccc3s2)CCN1C1CCCCC1 (stereo unspecified) the results were Calb biofilm kill 1.
Cc1c(O)nc(SCC(=O)Nc2ccc3c4c(cccc24)CC3)n(-c2ccc(F)cc2)c1=O was read as Calb biofilm kill 18.
`COc1cc(/C=C/C2=CC(C)(C)NC(=S)N2)cc(OC)c1OC` gave Calb biofilm kill 6.
Screening O=C(N/C(C(=O)N1CCOCC1)=C(\Sc1ncccn1)c1ccccc1)c1ccccc1 returned Calb biofilm kill 7.
CN(Cc1ccccc1)S(=O)(=O)c1ccccc1[N+](=O)[O-] was read as Calb biofilm kill 3.
Screening COc1ccc(/C(C)=C(\C#N)C(=O)OC(C)C)cc1OC returned Calb biofilm kill 2.
`Cc1ccc(S(=O)(=O)N(C)C)cc1NC(=S)NC(C)CCCC(C)C` (stereo unspecified) gave Calb biofilm kill 1.
Screening O=S(=O)(Nc1nc2ccccc2nc1OCC(F)(F)F)c1cccs1 returned Calb biofilm kill 19.
For Cc1ccnc(NC(=S)NC(=O)/C=C/c2ccc(Cl)cc2)c1 the results were Calb biofilm kill 11.
`CCOC(=O)NC1(Nc2ccc(C)cc2)Oc2ccccc2O1` gave Calb biofilm kill 14.
`CCOC(=O)CSc1nsc(SCC(=O)OCC)c1C#N` gave Calb biofilm kill 19.
`CCC(=O)N1CCc2cc(S(=O)(=O)CCC(=O)Nc3ccc(C)cn3)ccc21` gave Calb biofilm kill 22.
`COc1ccc(C(=O)N/N=C2\CCc3ccccc32)cc1OC` gave Calb biofilm kill 13.
For CC1Cc2ccccc2N1C(=O)c1ccc(N2CCCCC2)c([N+](=O)[O-])c1 (stereo unspecified) the results were Calb biofilm kill 14.

Retrieved by compound from the list above, 7 records:
For Cc1ccnc(NC(=S)NC(=O)/C=C/c2ccc(Cl)cc2)c1 the results were Calb biofilm kill 11.
`COc1ccc(C(=O)N/N=C2\CCc3ccccc32)cc1OC` gave Calb biofilm kill 13.
Screening O=C(N/C(C(=O)N1CCOCC1)=C(\Sc1ncccn1)c1ccccc1)c1ccccc1 returned Calb biofilm kill 7.
`CC(=O)c1cc(-c2ccc(F)cc2)n(CCC(=O)Nc2cccnc2)c1C` gave Calb biofilm kill 17.
For OCCC1CN(Cc2nc3ccccc3s2)CCN1C1CCCCC1 (stereo unspecified) the results were Calb biofilm kill 1.
`Cc1ccc(S(=O)(=O)N(C)C)cc1NC(=S)NC(C)CCCC(C)C` (stereo unspecified) gave Calb biofilm kill 1.
Screening COc1ccc(/C(C)=C(\C#N)C(=O)OC(C)C)cc1OC returned Calb biofilm kill 2.

The listing picks up; the 2 compounds before the break are reprinted first.
`COc1ccc(C(=O)N/N=C2\CCc3ccccc32)cc1OC` gave Calb biofilm kill 13.
For CC1Cc2ccccc2N1C(=O)c1ccc(N2CCCCC2)c([N+](=O)[O-])c1 (stereo unspecified) the results were Calb biofilm kill 14.
Cc1cccn2c(=O)c(/C=C(\C#N)C(=O)NC3CCS(=O)(=O)C3)c(N3CCC(C)CC3)nc12 (stereo unspecified) was read as Calb biofilm kill 22.
Screening NC(=O)N/N=C\c1cc(Br)ccc1O returned Calb biofilm kill 16.
Screening COc1cccc(N2C(=O)C(Cc3c[nH]c4ccccc34)NC2=S)c1 (stereo unspecified) returned Calb biofilm kill 19.
O=C1CCN(S(=O)(=O)c2ccccc2)CCN1CCOCc1cccc(F)c1 was read as Calb biofilm kill 22.
Screening Cc1cccc(C(=O)NC(=S)N2CCN(c3ccc([N+](=O)[O-])cc3)CC2)c1 returned Calb biofilm kill 2.
Nc1nc(SCc2ccc(F)cc2)ns1 was read as Calb biofilm kill 0.
Screening CCOc1ccc(CCNC(=O)c2cccc(C#N)c2)cc1OCC returned Calb biofilm kill 8.
`CCN(Cc1cc(=O)[nH]c2ccccc12)C(=O)C(C)C` gave Calb biofilm kill 16.
Cc1ccc(C(=O)Nc2cccnc2)cc1[N+](=O)[O-] was read as Calb biofilm kill 20.
Screening COc1ccccc1N1CCN(C2CCN(C(=O)c3cccc(F)c3)CC2)CC1 returned Calb biofilm kill 12.
Screening COC(=O)[C@H]1C[C@@H]1[C@H](NS(=O)(=O)c1ccccc1)c1ccccc1 returned Calb biofilm kill 5.
OC(CNCCNc1ncccc1C(F)(F)F)COc1ccc(F)cc1 (stereo unspecified) was read as Calb biofilm kill 21.
`O=C1NCCN(Cc2c(F)cccc2Cl)C1CC(=O)N1CCCO1` (stereo unspecified) gave Calb biofilm kill 10.
`Cc1ncc(CO)c(/C=N/NC(=O)c2ccc(O)cc2)c1O` gave Calb biofilm kill 1.
`CC12COC3(C(=O)N4CCN(c5ccccn5)CC4)CC1CCC32C` (stereo unspecified) gave Calb biofilm kill 13.
Screening COc1ccc(C)cc1NC(=O)CN(c1ccc(C)cc1)S(C)(=O)=O returned Calb biofilm kill 7.
For CCC(C(=O)O)P(=O)(c1ccc(Cl)cc1)c1ccc(Cl)cc1 (stereo unspecified) the results were Calb biofilm kill 8.
CC1=C(C(=O)OC2CCCCC2)C(c2cccnc2)n2ncnc2N1 (stereo unspecified) was read as Calb biofilm kill 9.
`COC(=O)C1=C(C)NC(=O)CC1c1ccccc1` (stereo unspecified) gave Calb biofilm kill 12.
`O=C1CSC(c2ccccc2)N1c1cccnc1` (stereo unspecified) gave Calb biofilm kill 16.
O=C(O)C1CC=CCC1C(=O)Nc1ccccc1C(=O)N1CCN(c2ccc(F)cc2)CC1 (stereo unspecified) was read as Calb biofilm kill 18.
Cc1ccc(S(=O)(=O)N(CC(=O)O)c2ccc(Cl)c(C(F)(F)F)c2)cc1 was read as Calb biofilm kill 6.
For O=C(NCc1cccnc1)Nc1cccc(NC(=O)NCc2cccnc2)c1F the results were Calb biofilm kill 9.
For O=C(COC(=O)c1ccccc1)NCCC1=CCCCC1 the results were Calb biofilm kill 11.
CC(=O)Nc1ccc(S(=O)(=O)NC(C)C(=O)NC(C)c2ccccc2)cc1 (stereo unspecified) was read as Calb biofilm kill -6.
NC(=O)CN1C(=O)/C(=c2\sc3nc(=O)c(Cc4ccccc4)nn3c2=O)c2ccccc21 was read as Calb biofilm kill 19.
`Cc1cc(C)c2c(N)c(C(=O)NN)sc2n1` gave Calb biofilm kill 17.
O=C(O)/C=C/C(=O)Nc1cccnc1 was read as Calb biofilm kill 21.
Screening O=C(NCc1ccco1)C1CCCN1C(=O)Nc1ccccc1Cl (stereo unspecified) returned Calb biofilm kill 20.
`Nc1ccc(Cc2ccc(N)c(O)c2)cc1O` gave Calb biofilm kill 13.
`COc1ccc([N+](=O)[O-])cc1N(CC(=O)NC1CCCC1)S(C)(=O)=O` gave Calb biofilm kill 8.
For CC(C)N(C(=S)Nc1cccc(C(F)(F)F)c1)C(C)c1ccccn1 (stereo unspecified) the results were Calb biofilm kill 0.
Screening COc1ccc2[nH]c(=O)c(CN(Cc3cccs3)C(=S)Nc3cccc(C)c3)cc2c1 returned Calb biofilm kill -3.
`CCOc1ccc(C2c3[nH]c4ccccc4c3CCN2Cc2cccn2-c2ncccn2)cc1` (stereo unspecified) gave Calb biofilm kill 24.
Screening CN(C)NC(=S)NC(=O)C12CC3CC(CC(C3)C1)C2 returned Calb biofilm kill 8.
For COC(=O)c1onc(-c2c(Cl)cccc2Cl)c1C(=O)OC the results were Calb biofilm kill 8.
O=S1(=O)CCN(Cc2cccc(C(F)(F)F)c2)CC1 was read as Calb biofilm kill 1.
Screening CC1(c2nnc(Cc3ccccc3)o2)CC(c2cccc(Cl)c2)=NO1 (stereo unspecified) returned Calb biofilm kill 13.
COc1ccc(NC(=O)N2CCCC(c3nc(-c4ccc(F)cc4)no3)C2)cc1 (stereo unspecified) was read as Calb biofilm kill 17.
`Cc1[nH]c2ccccc2c1/C=N/NC(=O)c1cccc(F)c1` gave Calb biofilm kill 28.
Screening CCOC(=O)C1C(=O)CC(C)(O)C(C(=O)OCC)C1c1ccc(NC(C)=O)cc1 (stereo unspecified) returned Calb biofilm kill 33.
Screening CC(C)CN1C(=O)c2ccc(NC(=O)Cc3ccccc3)cc2C1=O returned Calb biofilm kill 8.
Screening CCN(CC)CCNC(=O)c1ccc(-n2c(C)cc3c2CCCC3=O)cc1 returned Calb biofilm kill 12.
COc1ccc(C(NC(=O)c2ccc(F)cc2)c2ccccc2)cc1 (stereo unspecified) was read as Calb biofilm kill 17.
COc1cc([N+](=O)[O-])ccc1NC(=O)/C=C\C(=O)O was read as Calb biofilm kill 5.
O=[N+]([O-])c1cccc(/C=N/Nc2ccccn2)c1 was read as Calb biofilm kill 5.
Screening CCCN=C(C)C1=C(O)c2ccccc2C1=O returned Calb biofilm kill 14.
For Cc1ccccc1OCCN1CCC(Cc2ccccc2)CC1 the results were Calb biofilm kill 22.
For O=C(C1=C[C@H](C2CC2)C[C@H](OCCCCO)O1)N1CCOCC1 the results were Calb biofilm kill 3.
Cc1cc(C(=O)COC(=O)Cc2n[nH]c(=O)c3ccccc23)c(C)n1-c1ccc2c(c1)OCO2 was read as Calb biofilm kill 17.
Cc1cc[n+](-c2ccccc2)c2ccccc12 was read as Calb biofilm kill 5.
`CC1CCN(C(=O)Cn2ncc3c4ccccc4n(C)c3c2=O)CC1` gave Calb biofilm kill 24.
Screening COc1ccc(NC(=O)CCn2cccc2)c(OC)c1 returned Calb biofilm kill 8.
Screening CCOC(=O)c1[nH]n(-c2ccc(Cl)cc2)c(=O)c1C returned Calb biofilm kill 12.
COc1cc(/C=N/NC(=O)CCn2c3ccccc3c3ccccc32)cc(OC)c1OC was read as Calb biofilm kill 20.
CCOCCCNC(=S)Nc1ccc2nc3n(c(=O)c2c1)CCCCC3 was read as Calb biofilm kill 15.
c1cnc2ccc(C(c3nnnn3C3CCCC3)N3CCSCC3)cc2c1 (stereo unspecified) was read as Calb biofilm kill 11.
CCN(CC)C(=O)Oc1ccnc2cc(Cl)ccc12 was read as Calb biofilm kill 8.
O=C(c1ccc(Cl)cc1)N1N=C(c2ccccn2)CC1(O)C(F)(F)F (stereo unspecified) was read as Calb biofilm kill 14.
For O=C(NC(Cc1c[nH]c2ccccc12)C(=O)N/N=C/c1cccnc1)c1cccs1 (stereo unspecified) the results were Calb biofilm kill 16.
For CCOc1ccc(NC(=S)NC(C)CCc2ccccc2)cc1 (stereo unspecified) the results were Calb biofilm kill 4.
CC(C)(C)N(NC(=O)Nc1ccc(F)cc1)C(=O)c1ccccc1 was read as Calb biofilm kill 5.
`COc1cccc(-c2nn(-c3ccccc3)cc2C(=O)OCC(=O)Nc2ncc(Cl)cc2Cl)c1` gave Calb biofilm kill 5.
O=C(/C=C/c1ccccc1Cl)NCc1cccs1 was read as Calb biofilm kill 3.
